# Screening data (PubChem)
# Resorufin autofl – compounds fluorescent in resorufin spectral region | Compound fluorescence, resorufin region 547/598 nm, buffer; stronger effect = higher value | max dye-equivalent concentration, M | 59,000 tested, 0.04% active; active = above 10 nM dye equivalent; inconclusive = 1 to 10 nM; inactive = 1 nM or less; a few of its hits are not listed in these tables; further: highest value over a series up to 38 µM
#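 Compounds in 100 mM Tris buffer, pH 8.0, incubated 15 min at room temperature, then read with 547 nm excitation and 598 nm emission filters. Fluorescence was converted to dye-equivalent concentration using an on-plate six-point resorufin standard curve.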
# A488 fluor – compound fluoresces in the A488 spectral region; compound autofluorescence, A488 spectral region, dye equivalency; stronger effect = higher value; max dye equivalency, M; AID 591; 59,000 tested, 0.1% active; active = above 10 nM dye equivalent; inconclusive = 1 to 10 nM; inactive = 1 nM or less; about half of its hits are not listed in these tables;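 further: highest value over a series up to 38 µM; compound alone in buffer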
#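 Compounds pin-transferred into 100 mM Tris buffer, pH 8.0, incubated 15 min at room temperature, then imaged with 480 nm excitation/540 nm emission filters. Fluorescence converted to Alexa 488 dye-equivalent concentration via an on-plate six-point A488 standard curve.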
# A647 fluor – compound fluoresces in the A647 spectral region; Compound fluorescence, A647 channel (570/671 nm), Tris buffer; max dye-equivalent concentration, M; 59,000 tested, under 10 active; AID 592; active means above 1 µM dye equivalent; inconclusive means 0.1 to 1 µM; inactive means 0.1 µM or less;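 further: values scaled relative to a standard on each plate; highest value over a series up to 38 µM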
#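 Each compound's intrinsic fluorescence at 570 nm excitation and 671 nm emission is measured across its concentration series in 100 mM Tris, pH 8.0, after 15 min at room temperature, and reported relative to an A647 curve.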
# AID923 – qHTS Assay for Allosteric/Competitive Inhibitors of Caspase-1: Spectroscopic Profiling in AFC Spectral Region; compound fluorescence, AFC spectral region (405/520 nm); almost no hit is shown here; Potency, µM (titrated, usually from 57.5 µM), for inactives: top-dose fluorescence increase, hits mostly activators; 75,000 tested, 1.1% active; AID 923, 2007; active means well fitted activation curve with a large enough effect;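 further: potency means the concentration at half of the fitted maximal effect; 0% is about no effect; scaled to a free AFC standard on each plate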
#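 Baseline compound fluorescence (AFC region, 405 nm ex/520 nm em) taken from the intercept of kinetic reads with 50 nM caspase-1 and 5 uM Ac-WEHD-AFC; normalized to an on-plate AFC standard curve; compounds titrated up to 57 uM.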
# TSHR agonist – TSH receptor (human) agonism | Potency, µM (top dose mostly 57.1 µM), for inactives: at the top dose activation, hits mostly activators | HEK293-CNG-TSHR cells (CNG channel as cAMP sensor), membrane potential dye, cAMP | AID 926 | P16473 | 73,000 tested, 0.48% active; active = well fitted activation curve of enough size with the parental cells flat; inconclusive = any curve in the parental cells; inactive = parental cells flat and receptor cells flat or falling; further: potency means the concentration at half of the fitted maximal effect; % of control where 0% means no effect; weak receptor curves with flat parental cells got no call and are not listed
#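 cAMP rise detected as CNG-channel membrane depolarization by fluorescent dye (emission 590 nm), 30 min after compound, following 60 min dye loading containing 100 uM RO 20-1724 at room temperature. Cells: TSHR/CNG HEK 293, with parental CNG HEK 293 as control.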
# Numbers without * were called inactive; i = inactive; & = joins results of further samples; [ ] = dose if it differs, or a comment.
SMILES,Resorufin autofl,A488 fluor,A647 fluor,AID923,TSHR agonist
CC[C@H]1C(=O)OC[C@H]1Cc1cncn1C,i,i,1.1e-08&5.8e-08&6.5e-08&4.1e-08,2.9%[11.5 µM],3%[11.4 µM]

# Some of the compounds tested; rates above refer to the full screens.
